High-throughput results: PubChem BioAssay, several laboratories
Keap1 Nrf2 FP: Keap1-Nrf2 (human) interaction inhibition. Keap1 Kelch-Nrf2 peptide fluorescence polarization, 1536-well. inhibition, % at 9.4 µM. 0.15% of 340,000 active. AID 504523; in the data active means inhibition above about 12%;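 further: human Keap1 Kelch domain with fluorescein labeled Nrf2 9mer peptide probe; 0% = neutral control wells and 100% = peptide positive control; higher means more block of Keap1 binding to Nrf2 peptide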
HTR5A inv ag: HTR5A inverse agonism, opioid heterodimer counter-screen; P47898; HTR5A cell line, luminescence; inhibition, % at 9.3 µM; 0.083% of 340,000 active; in the data active means inhibition mostly above about 23%, no sharp cut-off; inactive means mostly below about 18%;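 further: 0% = cells with DMSO and 100% = no-cell wells with DMSO; some compounds called inactive have numbers as strong as hits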
MOR-DOR inv ag: inverse agonist of human OPRM1-OPRD1 heterodimerization; inhibition, % at 9.3 µM; AID 504357; cell-based MOR-DOR heterodimer luminescence, inverse agonism; 0.21% of 340,000 active; in the data active means inhibition above about 22%, passing the limit was not always enough;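 further: 0% = cells with DMSO and 100% = wells without cells with DMSO; values of inactives mirror those of a sister screen read the other way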
RTF Ca sens inh: cardiac RTF calcium desensitization; P19429+P45379; IANBD-labeled cardiac RTF, Ca2+ fluorescence; inhibition, % at 7.15 µM; 0.12% of 340,000 active;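 active means inhibition above the mean inhibition of all tested compounds plus 3 SD, cut at about 17% in these data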;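 further: assay run at fixed EC70 calcium of 1.6 mM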
HTR5A ag ctr: HTR5A agonism, opioid heterodimer counter-screen. AID 504692. activation, % at 9.3 µM. 0.61% of 340,000 active. HTR5A agonist assay, luminescence, cell-based; in the data active means activation mostly above about 9.5%, no sharp cut-off; inactive means mostly below about 7.6%;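 further: 0% = cells with vehicle only and 100% = reference agonist; strong numbers were not always called active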
RTF Ca sens act: cardiac RTF calcium sensitization; IANBD-labeled TnC RTF fluorescence at EC20 calcium; 0% EC20 calcium, 100% full calcium; activation, % at 7.2 µM; P19429+P45379; AID 493008; 0.24% of 340,000 active;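 active means activation above the mean over all tested compounds plus 3 SD, cut at about 30% in these data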;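 further: rise in fluorescence read as greater calcium sensitivity of cardiac thin filaments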
OPRM1-OPRD1 ag: agonists of human mu-delta opioid receptor heterodimerization. cells, OPRM1-OPRD1 heterodimerization, luminescence. activation, % at 9.3 µM. 0.3% of 340,000 active. AID 504326; in the data active means activation above about 18%;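 further: 0% = vehicle-treated cells and 100% = reference agonist; values of inactives mirror those of a sister screen read the other way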
* hit, by the source's call. Only part of the results is shown; count on the stated rates, not on these rows.

Each structure is followed by: HTR5A ag ctr	OPRM1-OPRD1 ag	Keap1 Nrf2 FP	RTF Ca sens inh	RTF Ca sens act	MOR-DOR inv ag	HTR5A inv ag
O=c1c(Cl)c(O)ccn1C1OC(CO)C(O)C1O (configuration not stated)
  4	-5.6	1	2	-6	25	-15
C#Cc1cccc(N2C(=O)C3C4C=CC(C3C2=O)C2C(=O)N(c3cccc(C#C)c3)C(=O)C42)c1 (configuration not stated)
  3	0.4	0	4	1	-2	-11
CC(=O)c1cn(S(=O)(=O)c2ccccc2)c2ccccc12
  0	-0.2	-5	-11	3	1	4
C=C(CN(C)C)C(=O)c1ccc2c(c1)OCO2
  1	-1.8	-33	4	-1	9	-4
c1ccc(CN2CCC3CC2c2cc(N4CCOCC4)ccc23)cc1 (configuration not stated)
  0	-3.2	-5	-10	4	15	1
O=C(Cn1c(C(=O)c2ccccc2)nc2ccccc21)c1ccc(Cl)cc1
  1	-0.1	-5	0	9	0	-4
CC(N)C(=O)NC(CO)C(O)C(N)C=O (configuration not stated)
  4	-1.5	-1	-1	-2	7	-14
Cc1cc2nc(SC(C)C(=O)O)[nH]c2cc1C (configuration not stated)
  -2	-2.2	0	-1	11	12	9
Cc1ccc2nc(-c3ccc(NC(=S)NCCC(C)C)cc3)sc2c1
  5	0.7	-1	-5	5	-4	5

Grouped by structure, those above containing sulfur (3)
Each structure is followed by: HTR5A ag ctr	OPRM1-OPRD1 ag	Keap1 Nrf2 FP	RTF Ca sens inh	RTF Ca sens act	MOR-DOR inv ag	HTR5A inv ag
CC(=O)c1cn(S(=O)(=O)c2ccccc2)c2ccccc12
  0	-0.2	-5	-11	3	1	4
Cc1cc2nc(SC(C)C(=O)O)[nH]c2cc1C (configuration not stated)
  -2	-2.2	0	-1	11	12	9
Cc1ccc2nc(-c3ccc(NC(=S)NCCC(C)C)cc3)sc2c1
  5	0.7	-1	-5	5	-4	5

As entered above:
HTR5A inv ag with O=C(Cn1c(C(=O)c2ccccc2)nc2ccccc21)c1ccc(Cl)cc1 stands at -4
Keap1 Nrf2 FP with C=C(CN(C)C)C(=O)c1ccc2c(c1)OCO2 stands at -33
OPRM1-OPRD1 ag with Cc1cc2nc(SC(C)C(=O)O)[nH]c2cc1C (configuration not stated) stands at -2.2
HTR5A ag ctr with Cc1ccc2nc(-c3ccc(NC(=S)NCCC(C)C)cc3)sc2c1 stands at 5
